# CapD inh: CapD enzyme inhibition | z-score (concentration not given with the values) | hit rate 0.23% among 140,000 | purified CapD enzyme, fluorescence intensity read-out; hits give low values; some hits fall short of the stated cut | AID 492967;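 active = z-score under -4 in either of two replicates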;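 note: stock transfer was 100 nL into about 40 µL; score is relative to mean and spread of the plate; one replicate is shown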
# AID504770: growth inhibitors of E. coli YBA685 in a screen for V. cholerae RctB (chromosome II replication) inhibitors. E. coli YBA685 rctB-dependent plasmid, OD600 growth, 3 h; hits give low values. hit rate 0.27% among 130,000. z-score (no concentration beside the values). AID 504770;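 active = z-score under -2 on both plates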;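 note: wells of about 30 µL received 100 nL stock; score is relative to mean and SD of the test wells; the first replicate is given; strong numbers were not always called active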
# * hit, by the source's call; x = no result given. A portion of the library; the hit share may differ from the screen's.
SMILES,CapD inh,AID504770
CC1CCCC(C)N1C(=O)COc1ccc(C(=O)O)cc1 (centres undefined),0.58,-0.65
Cc1cc(S(=O)(=O)N(C)CCc2ccccc2)ccc1-n1cnnn1,x,0.75
Cn1c(C2CC(=O)N(c3cccc4ccccc34)C2)nc2ccccc21 (centres undefined),x,1.8
CN(Cc1ccccc1)C(=O)Cn1c(=O)oc2cc(S(=O)(=O)N3CCCCC3)ccc21,-0.08,-0.4
Cc1ccc(NC(=O)c2sc3nc4c(c(-c5ccco5)c3c2N)CCC4)cc1,1.1,x
Cc1ccc(C2SCC(C(=O)O)N2C(=O)c2cccc(Cl)c2)cc1 (centres undefined),-0.19,-0.3
COc1ccc(CNc2ncnc3nc[nH]c23)cc1,0.005,0.2
C=CCc1cc(C(=O)O)cc(OC)c1OC,x,-1.2
O=C(/C=C\SCc1ncc(C(F)(F)F)cc1Cl)c1ccc(Cl)cc1,-0.26,x
Oc1c(C(c2cccnc2)N2CCCCC2)ccc2cccnc12 (centres undefined),x,0.85
COCc1nnc(NC(=O)/C=C/c2ccc3c(c2)OCO3)s1,13,-0.3
Cc1nccc2[nH]c(=O)c(C(=O)NCc3ccc(F)cc3)cc12,1.7,1.2
O=C(NCCSc1ccccc1)c1cc2ccccc2o1,0.09,-0.5
COC(=O)CSc1cc(C)nc(N)n1,0.22,-0.75
CCOc1cc(C2C(C(=O)Nc3ccccc3)=C(C)Nc3nnnn32)ccc1OCc1ccccc1 (centres undefined),-0.76,x
COC(=O)/C=C1\NC(=O)C(C)S1 (centres undefined),x,-0.05
CCOc1ccc(NS(=O)(=O)c2cc(C(=O)N3CCCC3)ccc2NCCc2ccc(Cl)cc2)cc1,0.31,x
CCC(=O)Oc1ccc(N2C(=O)CCC2=O)cc1,-0.42,0.95
CCC(Sc1nc2ccccc2c(=O)n1CCC(=O)NCCc1ccc(OC)c(OC)c1)C(=O)NCCCOC (centres undefined),-0.24,x
CC1CCN(C(=S)NC2CC3CCC2C3)CC1 (centres undefined),-0.34,x
c1ccc(-n2nnnc2N2CCCC2c2nc3ccccc3s2)cc1 (centres undefined),x,-0.6
COc1ccc(CCNC(=O)C2CCN(S(C)(=O)=O)CC2)cc1OC,0.41,-0.4
CSC/C(N)=N/S(=O)(=O)c1ccc(Cl)cc1,-0.24,-0.55
CCc1cc(OC(=O)N(C)C)nc(-c2ccc(F)c(Cl)c2)n1,-0.13,-0.7
Cc1cc(C(F)(F)F)nc(SCC(=O)NCc2ccccc2)n1,x,0.4
COc1cc(-c2nc3ccccc3c(=O)n2NC(=O)Cc2ccc(Cl)cc2)cc(OC)c1OC,0.18,x
CC(C)c1ccc(N2C(=O)CSC23C(=O)N(CN2CCN(C(c4ccccc4)c4ccccc4)CC2)c2ccccc23)cc1 (centres undefined),-0.4,x
C/C(CCc1ccc2c(c1)OCO2)=N\Nc1nc(C)cc(C)n1,x,0.6
CNS(=O)(=O)c1cccc(C(=O)OCc2nnc(-c3cc(OC)c(OC)c(OC)c3)o2)c1,x,2.2
Cc1ccc(OCC(=O)Nc2sc3c(c2C(N)=O)CCCC3)cc1,0.13,0.15
CCC12c3ccccc3C(c3ccccc31)C1C(=O)N(c3ccc(Cl)c(C(=O)O)c3)C(=O)C12 (centres undefined),-0.68,x
COc1ccc(CCC(=O)NCCc2cn3c(C)csc3n2)cc1,x,-0.85
CCOC(=O)C1CCN(C(=O)Cn2ncc3c(C)n(Cc4ccc(Cl)cc4)c(C)c3c2=O)CC1,1.9,-0.6
NC(=O)c1cc(N)ccc1N1CCOCC1,x,-0.8
Oc1ccccc1Oc1ncc(Br)c(N2CCOCC2)n1,0.17,-0.6
O=C(O)c1[nH]c2ccccc2c1CC(=O)N1CCN(c2ccccc2F)CC1,-1.2,2.7
Cn1c(SC2CCOC2=O)nnc1-c1ccccc1F (centres undefined),x,0.05
CC(=O)N1CCn2c1nc(N(C)C)nc2=O,-0.57,-1.1
COc1ccc(C=Nc2ccc(C)cc2)cc1,0.35,0.1
CCN(CC)S(=O)(=O)c1cccc(C(=O)NCc2ccccc2)c1,x,-0.6
COc1ccc(NC(=O)COc2cccc(OCC(C)C)c2)cc1,-1.5,0.55
CCOC(=O)C1=C(C)N=c2s/c(=C/c3ccc([N+](=O)[O-])o3)c(=O)n2C1c1ccccc1OC(C)C (centres undefined),0.07,x
Cc1nc(N2CCOCC2)c2c(C)c(C(=O)N3CCN(c4ccc(F)cc4)CC3)sc2n1,-0.32,x
O=C(NCc1ccco1)c1cc(C(=O)C2CC2)c[nH]1,-0.07,-0.4
CC(=O)N(CCP(=O)(c1ccccc1)c1ccccc1)Cc1ccco1,0.17,-0.85
O=S(=O)(NCc1ccc(C(F)(F)F)cc1)c1cc(C(F)(F)F)cc(C(F)(F)F)c1,-0.42,x
CSC1=NC(C)N2C(SC)=NC(C)N12 (centres undefined),0.11,x
CC(=O)Nc1cc(C(=O)N2CCOCC2)ccc1S(=O)(=O)c1ccc(C)cc1,0.23,0.8
CN(C)c1ccc(-c2nc3cnccn3c2Nc2ccccc2)cc1,3.1,-0.75
Cc1ccc2oc(=O)c3cnn(CC(=O)NCCc4ccc(S(N)(=O)=O)cc4)c3c2c1,0.075,-0.55
COc1ccccc1NC(=O)CN(C)S(=O)(=O)c1ccc2c(c1)n(C)c(=O)c(=O)n2C,0.025,0.2
CCOC(=O)c1ccc(NC(=O)Nc2ccc3c4c(cccc24)C(=O)N3CC)cc1,0.43,0.1
c1ccc2c(c1)OCC(CNc1ncnc3sccc13)O2 (centres undefined),x,-0.05
CC1(C)CC(=O)C=C(N2CCN(c3ccccn3)CC2)C1,x,0.3
COc1cccc(OC)c1C(=O)Nc1c(C(=O)N2CCN(c3ncccn3)CC2)oc2ccccc12,0.68,-0.7
CCOC(=O)C1=NNC2C(=O)N(c3cccc(C(F)(F)F)c3)C(=O)C12 (centres undefined),0.74,x
Cc1ccc(NC(=O)c2cc(S(=O)(=O)N3CCCC3)ccc2F)cc1,0.55,-0.3
Cn1nc(-c2ccccc2)c(C#N)c1Sc1ccc(Br)cc1,-0.045,x
O=C(Cc1c[nH]c2c(F)c(F)c(F)c(F)c12)NCCN1CCOCC1,-0.51,x
Oc1c(O)c(CN2CCCCC2)c2ccccc2c1CN1CCCCC1,6,-1.9

# (continued)
SMILES,CapD inh,AID504770
CC(Sc1nnc(Cc2cccc3ccccc23)n1C1CCCCC1)C(=O)NCc1ccco1 (centres undefined),x,-0.3
O=c1[nH]c(CN2CCOCC2)nc2c1oc1ccccc12,0,-0.2
COc1cc(-c2cc(C(=O)O)c3ccc(C)cc3n2)cc(OC)c1OC,0.18,x
O=C(O)CCSCc1ccccc1F,1.2,-0.4
COC(=O)c1ccc(OCC(=O)c2cccc(OC)c2)cc1,-0.2,0.2
Cn1c(=O)n(Cc2ccccc2F)c(=O)c2c1nc1n2CCCN1Cc1ccco1,x,-0.55
CC1CN(C(=O)COC(=O)C2CCC(C(C)(C)C)CC2)CC(C)O1 (centres undefined),x,0.6
COc1ccc2c(c1)CC/C(=C/c1cccs1)C2=O,-1.6,-0.75
COc1ccccc1CCOC(=O)NCCNC(C)=O,-0.61,x
CCOc1ccccc1N1CCN(C(=O)C2CCN(Cc3ccc(OC)cc3)CC2)CC1,x,0.25
COc1ccc(-n2ncnc2-c2ccc(Cl)cc2Cl)cc1,-0.31,0.1
CCc1cccc(C)c1NC(=O)c1ccc(C(=O)Nc2c(C)cccc2CC)cc1,0.18,0.2

# Compound profiles, as listed above. Order of values: CapD inh, AID504770
# `COC(=O)c1ccc(OCC(=O)c2cccc(OC)c2)cc1` is listed as -0.2, 0.2
# `c1ccc2c(c1)OCC(CNc1ncnc3sccc13)O2` (centres undefined) is listed as x, -0.05

# Continuation:
SMILES,CapD inh,AID504770
CCOC(=O)C(CC)Sc1ncnc2nc[nH]c12 (centres undefined),0.01,-0.85
O=C(NC1CCCCC1)c1ccc2c(c1)ncn2C1CCCCCC1,-0.47,-1.1
CCOC(=O)c1c(C)oc2ccc(N(C(=O)c3ccc(C)cc3)S(=O)(=O)c3ccc(Br)cc3)cc12,-0.12,x
O=C(CCn1nc(-c2ccccc2)ccc1=O)NCCc1ccccc1,-0.28,1.3
CC(=O)Oc1ccccc1C(=O)NC(C)(C)C,40,0.15
COc1ccc(-c2nn(-c3ccccc3)cc2NC(=O)Nc2cccc(C#N)c2)cc1OC,x,-0.45
CN(C)C(=O)/C(=C/C=C/c1ccccc1)NC(=O)c1ccccc1,-3.1,0.75
NNC(=O)C1CCN(c2ncc(C(F)(F)F)cc2Cl)CC1,-0.11,-0.7
O=C(Nc1cnc2ccccn2c1=O)c1ccc(F)cc1,0.78,-0.8
CC(C)c1cc(C(=O)NCc2ccco2)no1,-0.54,-0.85
COc1ccc(-c2n[nH]c3c2C(c2ccc(OC)cc2)N(c2ccccc2)C3=O)cc1 (centres undefined),0.51,1.2
O=C(CCn1c(=O)c2ccccc2n(Cc2cc(=O)n3ccccc3n2)c1=O)NCc1ccc2c(c1)OCO2,1.7,0.05
O=C(COC(=O)c1cc(Br)ccc1O)NC1CCCCC1,0.56,0
COC(=O)/C=C/c1cccc(Br)c1,-0.24,-0.55
COCCn1c(C)cc(C(=O)c2sc(-c3c(N)n(C)c(=O)n(C)c3=O)nc2-c2ccccc2)c1C,x,0.1
COc1cccc(C(=O)NCc2ccc3c4c(cccc24)C(=O)N3)c1,x,0
CN(C(=O)Cn1c(SCc2ccccc2F)nc2ccncc21)c1ccccc1,-0.17,-0.95
CCn1c(C(=O)O)c(CC(=O)N2CCN(c3ccccc3F)CC2)c2ccccc21,0.12,x
Cc1ccc(C)[n+](C)c1,x,2.1
O=C1C=C(/C=C/c2ccccc2)C[C@H](c2ccccc2)[C@H]1n1cnc([N+](=O)[O-])c1,5.7,x
N#Cc1ccc(-c2ccccc2)nc1Sc1cccc(C(F)(F)F)c1,0.01,x
O=C(c1ccccc1)c1cccn1S(=O)(=O)c1cc(C(F)(F)F)cc(C(F)(F)F)c1,0.17,x
COc1ccc(NC(=O)CC(C)NCc2ccc(CN3CCCC3)cc2)cc1 (centres undefined),x,-0.8
O=C(c1cn(Cc2ccccc2)nc1-c1ccccc1)N1CCN(CCO)CC1,x,0.2
CC(=O)Nc1sc2c(c1CN1CCCC1)CCCC2,x,2.7
COc1ccccc1C(C)NCC(=O)Nc1ccccc1C(=O)NC1CC1 (centres undefined),x,-0.05
CC(Nc1ncnc2c1oc1ccccc12)C1CC2CCC1C2 (centres undefined),x,0.2
CCOC(=O)c1sc2nc(SCC(=O)C(C)(C)C)n(Cc3ccco3)c(=O)c2c1C,0.32,x
CCOC(=O)CN1C(=O)C2C3c4ccccc4C(c4ccccc43)C2C1=O (centres undefined),-0.14,0.1
N=c1n(CCO)c2ccccc2n1Cc1ccc(Cl)cc1,-0.44,1.6
CCOC(=O)c1cnc2ccc(C(=O)OC)cc2c1NCCCO,4.6,-0.65
COC(=O)c1ccc2c(=O)n(CC3CCCO3)c(SCC(=O)Nc3ccc(OC)cc3OC)nc2c1 (centres undefined),-0.69,-0.8
O=C(Nc1nc(-c2ccccc2)cs1)C1CC1,-0.51,-0.05
N#CC(C#N)=CNc1ccncc1,x,1.9
CC(NC(=O)C12CC3CC(CC(C3)C1)C2)C(c1ccccc1)N1CCN(C)CC1 (centres undefined),x,-0.15
COc1cccc(/C=N/n2cnc3cc(C)c(C)cc32)c1OC,-0.43,-0.1
CCSc1nc2ccccc2n1CCOc1ccccc1,-0.3,-0.15
CC12CN(C(=O)c3ccccc3)CC(C)(CN(C(=O)c3ccccc3)C1)C2=O,-0.095,-1.9
Cc1ccc(N2C(=O)CSC23C(=O)Nc2ccccc23)cc1Cl (centres undefined),-0.02,x
Cn1nc(C(=O)N(Cc2ccco2)C2CCCCC2)c2c1-c1ccccc1SC2,-0.39,-0.75
Clc1ccc(N2CCN(c3cnc4ccccc4n3)CC2)cc1Cl,-0.42,x
C=C(CC(CC(=O)O)C(=O)N1CCCN(c2ncc(C(F)(F)F)cc2Cl)CC1)CC(C)(C)C (centres undefined),0.92,x
COc1ccc(C/C(N)=N/O)cc1,x,-0.15
CC1(C)Cc2c(ccc3ccccc23)C2=CC(=O)C(=O)N21,-0.16,x
OCCNc1nc(-c2cccnc2)nc2ccccc12,x,0.3
Cc1ccccc1CN1C2=NCCN2c2ccccc21,0.04,x
O=C(NC1CC1)C1c2ccccc2C(=O)N2CCc3ccccc3C12 (centres undefined),-0.74,0.35
CCN(c1ccccc1)c1nc2ccccc2n2cnnc12,-2.8,-0.95
CCO/C=N/S(=O)(=O)c1ccccc1,x,-0.75
CCO/C=N/c1oc(-c2ccccc2)nc1C#N,76,-1.1

# By substructure, those above with a furan ring, fused or not.
SMILES,CapD inh,AID504770
Cc1ccc(NC(=O)c2sc3nc4c(c(-c5ccco5)c3c2N)CCC4)cc1,1.1,x
O=C(NCCSc1ccccc1)c1cc2ccccc2o1,0.09,-0.5
CCOC(=O)C1=C(C)N=c2s/c(=C/c3ccc([N+](=O)[O-])o3)c(=O)n2C1c1ccccc1OC(C)C (centres undefined),0.07,x
O=C(NCc1ccco1)c1cc(C(=O)C2CC2)c[nH]1,-0.07,-0.4
CC(=O)N(CCP(=O)(c1ccccc1)c1ccccc1)Cc1ccco1,0.17,-0.85
COc1cccc(OC)c1C(=O)Nc1c(C(=O)N2CCN(c3ncccn3)CC2)oc2ccccc12,0.68,-0.7
CC(Sc1nnc(Cc2cccc3ccccc23)n1C1CCCCC1)C(=O)NCc1ccco1 (centres undefined),x,-0.3
O=c1[nH]c(CN2CCOCC2)nc2c1oc1ccccc12,0,-0.2
Cn1c(=O)n(Cc2ccccc2F)c(=O)c2c1nc1n2CCCN1Cc1ccco1,x,-0.55
CCOC(=O)c1c(C)oc2ccc(N(C(=O)c3ccc(C)cc3)S(=O)(=O)c3ccc(Br)cc3)cc12,-0.12,x
CC(C)c1cc(C(=O)NCc2ccco2)no1,-0.54,-0.85
CC(Nc1ncnc2c1oc1ccccc12)C1CC2CCC1C2 (centres undefined),x,0.2
CCOC(=O)c1sc2nc(SCC(=O)C(C)(C)C)n(Cc3ccco3)c(=O)c2c1C,0.32,x
Cn1nc(C(=O)N(Cc2ccco2)C2CCCCC2)c2c1-c1ccccc1SC2,-0.39,-0.75

# Screening results as filed in PubChem.
